Source: PubChem BioAssay (ICCB-Longwood Screening Facility, Harvard Medical School)
Polio RdRp inh = inhibitors of poliovirus RNA polymerase binding and polymerization; poliovirus polymerase elongation, fluorescence polarization; stronger effect = lower value; AID 588519; P03300; % elongation, % (compound at 16.7 µg/mL); 150,000 tested, 0.66% active; in the data active means % elongation below about 90%; further: some results filed as inactive read as strong as hits
Target sequence (P03300 1749-2209 limits assumed): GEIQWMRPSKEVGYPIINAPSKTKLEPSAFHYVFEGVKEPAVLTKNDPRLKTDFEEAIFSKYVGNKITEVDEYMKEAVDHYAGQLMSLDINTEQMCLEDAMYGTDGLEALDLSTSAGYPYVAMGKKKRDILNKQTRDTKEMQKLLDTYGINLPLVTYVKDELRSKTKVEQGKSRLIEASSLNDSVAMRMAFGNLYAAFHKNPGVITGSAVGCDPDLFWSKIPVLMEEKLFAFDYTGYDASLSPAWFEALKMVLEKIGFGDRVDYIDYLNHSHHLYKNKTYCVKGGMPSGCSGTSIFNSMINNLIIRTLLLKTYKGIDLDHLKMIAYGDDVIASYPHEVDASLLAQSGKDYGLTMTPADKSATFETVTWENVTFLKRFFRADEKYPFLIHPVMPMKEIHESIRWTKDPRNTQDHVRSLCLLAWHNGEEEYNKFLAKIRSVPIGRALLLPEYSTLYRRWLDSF
Polio RdRp inh intensity = recorded beside Polio RdRp inh, whose call it bears; % elongation; measured here: total intensity read-out; formula for this scale not given here;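 total fluorescence in place of polarization; lower means less elongation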
Starred values were filed as active, the others as inactive. A portion of the library; rates above refer to the full screens.

compound | Polio RdRp inh | Polio RdRp inh intensity
CCOc1ccc(NC(=O)CSc2oc(-c3ccc(F)cc3)nc2S(=O)(=O)c2ccc(C)cc2)cc1 | 104 | 106
COc1ccc(-n2c(/C=C/c3c(C)[nH]c4ccccc34)nc3ccccc3c2=O)cc1 | 105 | 105
COc1ccc(NC(=O)C(=O)NCCc2csc3nc(-c4ccccc4F)nn23)cc1OC | 114 | 110
Cc1ccc(C(C)C)c(OCC(=O)N2CCN(CCc3ccncc3)CC2)c1 | 100 | 102
Cc1ccc(Cl)cc1NC(=O)c1oc2ccc(S(=O)(=O)N3CCCCC3)cc2c1C | 98 | 106
COc1ccccc1Nc1nc(N)nc(N)c1S(=O)(=O)c1ccccc1 | 108 | 106
Cc1ccc(CSc2nnc(CCNC(=O)OC(C)(C)C)o2)cc1 | 107 | 99
COc1ccccc1N1CCN(C(=O)c2cnn(C(C)(C)C)c2C2CCN(C(=O)OC(C)(C)C)CC2)CC1 | 115 | 105
CCCCOc1ccc(CNC(=O)c2ccc(NC(=O)N3CCCCc4ccccc43)cc2)cc1 | 109 | 114
Cc1ccc(Cl)cc1N(C)C(=O)c1cn(C2CCCCC2)c(=O)c2c1c1ccccc1n2C | 115 | 117
COc1ccccc1CNC(=O)Cc1csc2nc(-c3ccc(F)cc3)cn12 | 114 | 110
CCc1cccc(NC(=O)COC(=O)c2cn(CC)c3nc(C)ccc3c2=O)c1 | 104 | 107

The list continues.
compound | Polio RdRp inh | Polio RdRp inh intensity
COc1ccc(C2NC(=O)c3c(sc4c3CCN(C)C4)N2)cc1O (stereo not given) | 95 | 72
Cc1nc(-c2cccc(F)c2)sc1CCNC(=O)c1ccc(F)c(F)c1 | 106 | 104
Cc1ccc2[nH]c3c(=O)n(CC(=O)NCCCN4CCN(c5ccc(F)cc5)CC4)ncc3c2c1 | 108 | 106
Cc1ccc(CNC(=O)c2nnn(Cc3ccc(F)cc3)c2N)cc1 | 105 | 105
COc1ccc(NC(=O)Cn2c(=O)n(-c3ccc(OC)c(OC)c3)c(=O)c3ccccc32)cc1 | 109 | 111
COc1ccc(OC)c(NC(=O)c2ccc3c(Cl)c4c(nc3c2)CCCC4)c1 | 108 | 112
COc1cccc(NC(=O)CCS(=O)(=O)c2ccc3c(c2)oc(=O)n3C)c1 | 105 | 113
CCOC(=O)c1oc2ccc(S(=O)(=O)n3nc(-c4ccccc4OC)cc3N)cc2c1C | 115 | 113
Cc1ccc(CN2CCN(CC(=O)Nc3ccc(C)c(C)c3)S2(=O)=O)cc1 | 102 | 104
CCOc1ccc(NC(=O)C2CCCN(S(=O)(=O)c3ccc(Br)s3)C2)cc1 (stereo not given) | 111 | 112
CCOc1ccc2cc(-c3nnc(Nc4ccccc4F)s3)c(=O)oc2c1 | 109 | 130
Cc1ccc(CNC(=O)c2ccc(CSCc3ccccc3Cl)o2)cc1 | 114 | 117

Shown with values under each structure: part of the list above
Values run as follows: Polio RdRp inh	Polio RdRp inh intensity
> Cc1ccc(CNC(=O)c2nnn(Cc3ccc(F)cc3)c2N)cc1
 : 105	105
> COc1ccc(NC(=O)Cn2c(=O)n(-c3ccc(OC)c(OC)c3)c(=O)c3ccccc32)cc1
 : 109	111
> COc1ccc(OC)c(NC(=O)c2ccc3c(Cl)c4c(nc3c2)CCCC4)c1
 : 108	112
> COc1cccc(NC(=O)CCS(=O)(=O)c2ccc3c(c2)oc(=O)n3C)c1
 : 105	113
> CCOC(=O)c1oc2ccc(S(=O)(=O)n3nc(-c4ccccc4OC)cc3N)cc2c1C
 : 115	113
> Cc1ccc(CN2CCN(CC(=O)Nc3ccc(C)c(C)c3)S2(=O)=O)cc1
 : 102	104

Further compounds
compound | Polio RdRp inh | Polio RdRp inh intensity
O=C(Nc1ccc(Cl)c(C(F)(F)F)c1)C1CCCN(S(=O)(=O)c2cccc3cccnc23)C1 (stereo not given) | 105 | 104
CCN(CC)C(=O)Cn1c(=O)n(-c2ccc(OC)cc2OC)c(=O)c2c(C)c(C(=O)N(CC)CC)sc21 | 113 | 99
CCc1ccccc1NC(=O)CSc1nnc(-c2cc(OC)c(OC)c(OC)c2)o1 | 109 | 105
CCOC(=O)C1CCC(CN(Cc2ccc(Cl)cc2)S(=O)(=O)c2ccc(F)c(C(=O)Nc3cccc(F)c3)c2)CC1 (stereo not given) | 110 | 102
COc1cc(OC)c(N(C)C(=O)c2c(C)oc3ncnc(N4CCCCC4)c23)cc1Cl | 99 | 106
COc1ccc(-c2csc3ncnc(Nc4cc(OC)cc(OC)c4)c23)cc1 | 106 | 99
CCOCc1ccccc1Nc1ncnc2onc(-c3ccc(Cl)cc3)c12 | 118 | 111
Cc1cc(C)c(S(=O)(=O)Nc2ccc(-c3ccc(N4CCCCCC4)nn3)cc2)cc1C | 102 | 104
Cc1ccc(NC(=O)c2c(C)nc3sc(C(=O)Nc4ccc(F)cc4)c(N)c3c2-c2ccc(Cl)cc2)c(C)c1 | 107 | 110
CC(C)CC(=O)Nc1ccc(Cl)c(-c2nc3ccccc3[nH]2)c1 | 103 | 106
CCCCN(CC)CCCNC(=O)c1nn(C)c2c1CS(=O)(=O)c1ccccc1-2 | 111 | 116
Cc1nn(CC(=O)NCCc2ccccc2Cl)c(=O)c2nn(-c3ccccc3)c(C)c12 | 122 | 116

Two entries from above, field by field.
Cc1cc(C)c(S(=O)(=O)Nc2ccc(-c3ccc(N4CCCCCC4)nn3)cc2)cc1C
  Polio RdRp inh: 102	Polio RdRp inh intensity: 104
Cc1ccc(NC(=O)c2c(C)nc3sc(C(=O)Nc4ccc(F)cc4)c(N)c3c2-c2ccc(Cl)cc2)c(C)c1
  Polio RdRp inh: 107	Polio RdRp inh intensity: 110

Later entries
compound | Polio RdRp inh | Polio RdRp inh intensity
CC(=O)Nc1cc(C(=O)NCc2ccc(F)cc2)ccc1Sc1ccc(F)cc1 | 113 | 109
COc1ccc(Br)cc1CNC(=O)c1cc(=O)[nH]c2ccc(S(=O)(=O)N3CCCCC3C)cc12 (stereo not given) | 110 | 110
COc1ccc(NC(=O)CC2C(=O)N(c3ccccc3)C(=O)N2CCc2sccc2C)cc1 (stereo not given) | 106 | 109
O=S(=O)(Nc1nc2n(n1)C(c1ccc(F)cc1)C=C(c1ccccc1)N2)c1ccccc1 (stereo not given) | 93 | 136
O=C1CC(c2nc3ccccc3n2CCC2CCCCC2)CN1c1ccccc1Cl (stereo not given) | 109 | 114
COCCCNc1oc(-c2ccc(COc3ccccc3C)o2)nc1C#N | 101 | 99
CCc1ccccc1NC(=O)c1cc2nc(-c3ccc(Br)cc3)cc(C(F)(F)F)n2n1 | 109 | 110
COC(=O)c1ccccc1NC(=O)CCC(=O)N1CC(C)Sc2ccccc21 (stereo not given) | 108 | 112
CCC(Sc1nnc(C)n2c1cc1occc12)C(=O)Nc1ccccc1F (stereo not given) | 103 | 96
CCc1ccccc1NC(=O)CN(c1cccc(C)c1C)S(C)(=O)=O | 101 | 102
CCOc1ccc(N2CC(c3nc4ccccc4n3CCC3CCCCC3)CC2=O)cc1 (stereo not given) | 109 | 102
COc1cc(NC(=O)CCNC(=O)Cn2cnc3ccccc3c2=O)cc(OC)c1OC | 103 | 107

The listing continues.
compound | Polio RdRp inh | Polio RdRp inh intensity
C=Cc1ccc(Cn2c(C)c(CNCc3cccc(Br)c3)c(C(=O)O)c2C)cc1 | 106 | 108
COc1cc(Nc2nc3ccc(Cl)cc3nc2-n2nc(C)cc2C)cc(OC)c1 | 107 | 109
Cc1nnc(SCC(=O)Nc2ccc(Br)cc2)[nH]c1=O | 95 | 91
Cc1nc2c(c(C)nn2-c2ccccc2)c(C)c1CCC(=O)Nc1ccccc1 | 102 | 104
Cc1ccc(S(=O)(=O)c2nnn3c2nc(N2CCC(C(N)=O)CC2)c2cc(Cl)ccc23)cc1C | 98 | 98
CCCn1ccc2c(OCC(=O)Nc3ccccc3OCC)cccc2c1=O | 98 | 106
O=C(OCc1cc(=O)n2nc(-c3cccs3)sc2n1)c1ccccc1Br | 110 | 111
CCCOc1ccc(CNC(=O)c2cc3ccccn3n2)cc1 | 117 | 116
COc1ccc(S(=O)(=O)Nc2ccc3c(c2)N(C(C)=O)CCC3)cc1F | 108 | 118
CCc1ccccc1S(=O)(=O)Cc1ccc(C(=O)NCCc2ccc(C)cc2)o1 | 108 | 105
O=C(CCn1c(=O)c2cccn2c2cccnc21)NCc1ccc(F)cc1 | 112 | 114
Cc1ccc(S(=O)Cc2ccc(C(=O)NCc3ccc(OC(C)C)cc3)o2)cc1 (stereo not given) | 102 | 100

The results go on.
compound | Polio RdRp inh | Polio RdRp inh intensity
Cc1c(C(=O)N2CCCCCC2)c(S(=O)(=O)Nc2cccc(C#N)c2)c(C)n1C | 106 | 107
Cc1cccc(Cn2c(C)c(CNC3CCCCCC3)c(C(=O)O)c2C)c1 | 108 | 111
COc1ccc(S(=O)(=O)Nc2c(C)nc3nc[nH]n3c2=O)cc1 | 111 | 102
COc1cc(C)ccc1OCCCn1c(-c2ccc(Cl)cc2)nc2ccccc2c1=O | 109 | 106
Cc1ccc(C(=O)COC(=O)CCC(=O)Nc2ccc(Oc3ccccc3)cc2)cc1C | 104 | 107
CCOc1ccc(NC(=O)Cn2cc(C(=O)C3CC3)c3ccccc32)cc1 | 107 | 110
COc1ccc(CSc2nc3ccncc3n2Cc2nc(-c3ccc(OC)c(OC)c3)oc2C)cc1 | 116 | 113
O=C(COc1ccccc1[N+](=O)[O-])Nc1ccc(-c2nc3ccccc3s2)cc1 | 107 | 113
COc1ccc(-n2nc(C(=O)Nc3ccccc3OC)c3c4ccccc4n(C)c3c2=O)cc1Cl | 107 | 108
O=C(c1cccc([N+](=O)[O-])c1)N1CCN(c2ccc(Nc3ccccc3)nn2)CC1 | 109 | 112
COc1ccc(NC(=O)CCSc2nc(-c3ccco3)cc(C(F)(F)F)n2)cc1 | 106 | 108
CCCCN(C)C(=O)CSc1c2c(nc3ccc(Cl)cc13)CCCC2 | 100 | 104

Next part.
compound | Polio RdRp inh | Polio RdRp inh intensity
Cc1cc(C)cc(Oc2c(C(F)(F)F)oc3cc(OCC(=O)NC4CCCCC4)ccc3c2=O)c1 | 99 | 101
CN(C)S(=O)(=O)c1ccc(C(=O)Nc2c(C(=O)Nc3ccc(F)cc3)oc3ccccc23)cc1 | 100 | 101
CCOc1ccc(OCC)c(NC(=O)c2cc(C)nc3c2c(C)nn3-c2cccc(Cl)c2C)c1 | 112 | 111
COc1ccccc1C(=O)Nc1ccc2nc(SCC(=O)N(C)c3ccccc3)sc2c1 | 114 | 111
COc1cc(OC)c(NC(=O)CCc2c(C)nc3ncnn3c2C)cc1Cl | 108 | 112
CCc1nn(CC(=O)NC(C)CCc2ccccc2)c(=O)c2cc3c(OC)cccc3n12 (stereo not given) | 103 | 104
Cc1cc(S(=O)(=O)C(CNC(=O)COc2ccc(Cl)cc2)c2cccs2)ccc1F (stereo not given) | 106 | 96
COc1ccccc1CNC(=O)c1cnn2c(C)c(Cc3ccc(F)cc3)c(C)nc12 | 103 | 104
COc1ccc(NC(=O)CN(Cc2ccccc2)S(=O)(=O)c2ccc(C)cc2)cc1Cl | 106 | 100
COc1cccc(NC(=O)Cn2cc(C(=O)c3ccc(C)cc3)c(=O)c3cc(OC)ccc32)c1 | 104 | 104
COCCNC(=O)c1ccccc1NC(=O)c1nsc2ccccc12 | 99 | 105
O=C(O)c1ccc(Nc2ncnc3scc(-c4ccccc4)c23)cc1 | 104 | 109

(continued)
compound | Polio RdRp inh | Polio RdRp inh intensity
Cc1cccc(CCn2c(=O)c3ccccc3n(Cc3ccccc3C)c2=O)c1 | 111 | 113
COc1ccc(CNC(=O)C2CCN(S(=O)(=O)c3ccc4nc5c(c(C(=O)O)c4c3)CCCC5)CC2)cc1 | 102 | 105
OCc1nc2ccccc2n1Cc1c(F)cccc1Cl | 108 | 108
COc1ccc(CCNC(=O)NCc2noc3ccccc23)c(OC)c1 | 103 | 105
CCC(C(=O)N1CCN(c2ccccc2)CC1)n1c(C)c2cnn(-c3ccccc3)c(=O)c2c1C (stereo not given) | 106 | 106
C=CCc1ccccc1OCCSc1nc(-c2ccccc2F)nc2cc(=O)[nH]n12 | 106 | 110
COc1ccc(NC(=O)CSc2c3c(nc4ccccc24)CCC3)c(OC)c1 | 96 | 93
CCOc1ccc(Nc2c(S(=O)(=O)c3ccccc3)cnc3ccccc23)cc1 | 105 | 107
COc1ccc(-c2nc(CS(=O)CC(=O)NCCc3ccc(Cl)cc3)c(C)o2)cc1OC (stereo not given) | 107 | 103
Cc1ccc(CN(Cc2ccco2)C(=O)COc2ccc(Cl)cc2)o1 | 107 | 111
COc1ccc(NC(=O)c2sc3nc4c(cc3c2N)CCCCCC4)c(OC)c1 | 113 | 116
CCCCSCCCNC(=O)C1CCC(CNS(=O)(=O)c2ccccc2)CC1 (stereo not given) | 108 | 111

Continued.
compound | Polio RdRp inh | Polio RdRp inh intensity
O=C1CCCc2cc(S(=O)(=O)N3CCCC(C(=O)Nc4ccc(F)c(Cl)c4)C3)ccc2N1 (stereo not given) | 105 | 110
CCCCN(C)CCCNC(=O)c1ccc2nc(N3CCCCC3)sc2c1 | 114 | 115
COc1ccccc1N1CCN(C(CNC(=O)C(=O)NCc2ccc(F)cc2)c2cccnc2)CC1 (stereo not given) | 104 | 98
CCOc1ccc(C2C(=O)N(C3CCCCCC3)CC(=O)N2Cc2ccc(C)cc2)cc1OC (stereo not given) | 106 | 108
COc1ccccc1N=c1scc(-c2ccc(S(=O)(=O)N3CCCC3)cc2)n1C | 102 | 105
Cc1cc(C)c(/C=C/c2onc(C)c2S(=O)(=O)N2CCC(C(=O)Nc3cccc(C)c3C)CC2)c(C)c1 | 104 | 96
COc1cc(NC(=O)Cn2nc(C(F)(F)F)c3c2CCCC3)cc(OC)c1OC | 109 | 109
Cc1ccc(/C=C(\C#N)C(=O)Nc2cccc(Cl)c2)o1 | 106 | 109
